From PubChem
rRNA inh HTS = reduced GFP signal of wild-type E. coli, primary screen, bacterial rRNA inhibitor project, GFP/RFP fluorescence, OD600, single point. E. coli WT GFP vs humanized-ribosome RFP mutants, 24 h; active compounds read low; DMSO median 0, no signal -100. GFP signal change (wild-type ribosome), % (concentration not given with the values). 350,000 compounds, 1.6% hits. AID 720706, 2013;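 active = significant combined selectivity score with lowered wild-type GFP, culture density cut under 30%, mutant RFP and density less affected; inactive = any of these conditions unmet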; note: one replicate is shown; some compounds called inactive have numbers as strong as hits
Beta apoptosis = inhibitors of cytokine-induced beta cell apoptosis, primary screen, luminescence. INS-1E cytokine-induced death, ATP luminescence, 48 h; percent of positive-control rescue, neutral wells zero. protection from apoptosis, % (no concentration beside the values). 300,000 compounds, 0.8% hits. AID 435005, 2010;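 active = all replicates at 75% or more, or half of them and the mean; inconclusive = half reach 75% but not the mean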;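 note: 0% = cytokine-treated negative control wells and 100% = positive control rescue; higher means more ATP so stronger rescue from cytokine killing; wells of about 40 µL received 100 nL stock; the first replicate is given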
Bfl-1 A1 inh = caspase 3/7 activation in MEF A1-2A-BIM cells, primary screen, A1 inhibitor project, cell-based, luminescence, HTS | AID 2462, 2010 | Caspase-Glo 3/7 luminescence, 3 h; percent of clofoctol response, vehicle zero | caspase activation, % (test concentration not listed) | 330,000 compounds, 0.066% hits;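 active = over half of replicate activation scores above 10%, or exactly half above 10 with the replicate mean above 10; inconclusive = replicate mean below 10 yet half the replicates above 10; inactive = over half of replicates below 10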;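 note: wells of about 30 µL received 50 nL stock; many hits fall short of the cut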
T cruzi inh = inhibitors of intracellular T. cruzi growth, primary screen, luminescence, NIH3T3 host cells | 300,000 compounds, 1.4% hits | T. cruzi beta-gal in NIH3T3, 90 h | inhibition, % (no concentration beside the values);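 active = mean inhibition across valid replicates above about 55%, limit read from the data; inconclusive = mean below that limit but half or more replicates reach it; inactive = mean below it, under half of replicates reach it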;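 note: signal also drops with host cell toxicity which is not excluded here; 0% = plate median of DMSO wells and 100% = zero luminescence signal; higher percent means less beta-gal luminescence so fewer parasites; stock transfer was 50 nL into about 50 µL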
LANA-H2A inh = blockers of LANA interaction with H2A/H2B – biochemical, FP readout, HTS, primary screen; cell-free LANA-H2A/H2B peptide, fluorescence polarization; inhibition, % (concentration not given with the values); 320,000 compounds, 0.6% hits; AID 2629, 2010; in the data active = inhibition mostly above about 10%, no sharp cut-off; inactive = mostly below about 6.7%;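 note: stock transfer was 7.5 nL into about 10 µL; 0% = median of vehicle wells and 100% = median of positive control wells; one replicate is shown; the record names a cut of 25% in any replicate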
Target sequence (Q9QR71 whole entry, looked up): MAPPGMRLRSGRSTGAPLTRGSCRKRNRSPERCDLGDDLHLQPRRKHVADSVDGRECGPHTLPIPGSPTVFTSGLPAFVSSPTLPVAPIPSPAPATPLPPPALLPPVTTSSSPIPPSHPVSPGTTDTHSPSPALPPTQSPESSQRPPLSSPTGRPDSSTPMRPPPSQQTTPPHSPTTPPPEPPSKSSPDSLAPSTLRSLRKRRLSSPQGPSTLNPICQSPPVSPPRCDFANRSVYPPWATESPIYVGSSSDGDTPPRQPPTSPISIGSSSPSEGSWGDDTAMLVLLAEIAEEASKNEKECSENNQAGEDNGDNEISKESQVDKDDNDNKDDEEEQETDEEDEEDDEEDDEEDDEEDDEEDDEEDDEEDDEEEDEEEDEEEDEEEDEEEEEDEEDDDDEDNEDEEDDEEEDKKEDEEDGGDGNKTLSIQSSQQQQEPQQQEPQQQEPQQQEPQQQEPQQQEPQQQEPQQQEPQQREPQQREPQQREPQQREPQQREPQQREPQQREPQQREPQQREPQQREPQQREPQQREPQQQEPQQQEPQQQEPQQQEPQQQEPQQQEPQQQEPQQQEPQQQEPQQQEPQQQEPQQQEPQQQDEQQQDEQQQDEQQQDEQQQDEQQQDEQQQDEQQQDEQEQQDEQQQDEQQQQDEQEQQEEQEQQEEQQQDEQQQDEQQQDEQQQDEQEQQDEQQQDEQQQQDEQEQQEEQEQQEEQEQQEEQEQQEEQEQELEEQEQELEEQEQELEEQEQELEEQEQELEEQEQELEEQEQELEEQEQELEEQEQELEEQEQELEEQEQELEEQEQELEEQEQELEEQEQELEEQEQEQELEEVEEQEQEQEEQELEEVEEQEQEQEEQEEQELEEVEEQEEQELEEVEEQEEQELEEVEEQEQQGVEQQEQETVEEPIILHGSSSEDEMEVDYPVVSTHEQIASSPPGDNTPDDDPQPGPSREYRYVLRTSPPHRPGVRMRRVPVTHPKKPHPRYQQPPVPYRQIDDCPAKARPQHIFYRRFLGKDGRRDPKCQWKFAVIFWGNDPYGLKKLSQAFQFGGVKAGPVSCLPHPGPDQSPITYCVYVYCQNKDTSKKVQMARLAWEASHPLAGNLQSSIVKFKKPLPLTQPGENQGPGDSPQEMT
Calb FLC = C. albicans growth inhibition with fluconazole, primary screen, CaCi-2 strain, Alamar Blue fluorescence | growth inhibition, % (concentration not given with the values) | 300,000 compounds, 0.57% hits | C. albicans CaCi-2 (fluconazole-resistant clinical isolate) + fluconazole, 48 h;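 active = most replicates above 75%; inconclusive = exactly half above 75%; inactive = most below 75%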;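 note: all wells also contain fluconazole at 8 µg/ml as a sub-toxic cotreatment; 0% = median of DMSO wells and 100% = median of geldanamycin control wells; wells of about 8 µL received 7.5 nL stock; the first replicate is given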
ALR inh = inhibitors of human ALR sulfhydryl oxidase, primary screen, biochemical, H2O2 detection, HRP-luminol luminescence, single point | FAD-linked sulfhydryl oxidase ALR (Homo sapiens), P55789 | purified ALR, DTT oxidation | inhibition, % (no concentration beside the values) | 290,000 compounds, 3.8% hits | AID 485317, 2010;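 active = mean and each replicate at 75% or more; inconclusive = only one of the two met; inactive = neither met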;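 note: stock transfer was 7.5 nL into about 7.5 µL; 0% = neutral wells and 100% = wells with inactivated enzyme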
Beta2AR agonist = beta2AR agonists driving receptor internalization, primary screen, cell-based, FAP fluorogen, flow cytometry; Beta-2 adrenergic receptor (Homo sapiens), P07550; Am2.2-beta2AR cells; reference of the scale not given here; response, % (concentration not given with the values); 340,000 compounds, 0.43% hits; AID 504454, 2011;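 active = response above a set limit, near 3 SD of response in nonfluorescent compounds, cut at about 42% in these data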;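 note: stock transfer was 100 nL into about 11 µL; a reference agonist was the positive control; negative values mostly stem from fluorescent compounds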
rRNA inh HTS OD600 = second read-out of rRNA inh HTS, no call of its own (marks repeat the call); OD600 change, %; measured here: OD600 growth;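 optical density of the mix in the first replicate; 0 = DMSO median and -100 = no signal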
rRNA inh HTS RFP = further read-out of rRNA inh HTS, marked with its call; RFP signal change, %; measured here: RFP humanized mutant strains;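 first replicate; 0 = DMSO median and -100 = no signal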
The depositor's hits bear a star; u = inconclusive; x = not tested or not shown. Not all compounds are listed; count on the stated rates, not on these rows.

SMILES	rRNA inh HTS	rRNA inh HTS OD600	rRNA inh HTS RFP	Beta apoptosis	Bfl-1 A1 inh	T cruzi inh	LANA-H2A inh	Calb FLC	ALR inh	Beta2AR agonist
O=C(CNC(=O)c1ccc(Br)o1)NCC1CCCCC1	x	x	x	-4	1.1	x	-1.2	x	x	2
COc1ccc(CN2CCN(CC(O)Cn3c4ccccc4c4ccccc43)CC2)cc1 (centres undefined)	-25	-25	5.7	15	0.2	45	6.5	21	-21	24
COc1ccc(C(=O)Nn2cnnc2)c(OC)c1	x	x	x	-8	-2.0	7	5.5	0	2	0
Cn1nccc1C(=O)Nn1cnnc1	x	x	x	-1	0.3	-11	-1.6	2	-6	-6
CCn1c(SCC(=O)Nc2ccc(OCc3ccccc3)cc2)nnc1-c1ccco1	x	x	x	3	1.4	-9	-5.5	-5	35	-5
Nc1nc(-c2ccccc2)c(-c2ccccc2)n1N	4	-9	0.4	-2	-2.7	-6	-2.9	-6	4	-2
Cc1cc(NC(=O)CSc2ccc3nnc(-c4ccccc4)n3n2)no1	1	1	1.2	1	-1.4	0	-1.6	-5	19	-19
Cc1[nH]c2ccccc2c1C(=O)CN1CCC2(CC1)OCCO2	x	x	x	0	-1.3	-1	-2.3	-22	-8	-13
CCCCNC(=S)N(C)/N=C/c1ccc(OCc2ccc(C(=O)OC)cc2)c(OC)c1	x	x	x	4	-0.6	-4	-1.4	-7	12	-1
CC(C)Oc1ccccc1OCCN(C)C	x	x	x	-4	-0.5	2	-6.5	-3	-7	-10
Cc1cc(NC(=O)Nc2ccc(Cl)cc2)n(C(C)(C)C)n1	10	10	-1.2	-4	0.2	3	-4.0	-16	-13	3
COc1ccc(-c2ccc3c(c2)S(=O)(=O)c2cccc(C(=O)N4CCN(c5ccc(Cl)cn5)CC4)c2C3=O)cc1OC	-5	6	-2.9	-3	-0.9	x	-4.4	x	1	4
O=C(Nc1ccc([N+](=O)[O-])cc1)c1cc(-c2ccccn2)nc2c(Cl)cccc12	24	20	5.6	8	0.0	-21	3.4	4	-4	4
CCN(CC(=O)Nc1ccc(NC(C)=O)cc1)C(=O)c1cc(S(=O)(=O)N2CCCCCC2)ccc1OC	-1	3	-0.4	-2	-0.2	6	0.7	0	-2	-1
CN(C)/C=C(/C(=O)c1ccc(F)cc1)S(=O)(=O)c1ccc(F)cc1	6	9	-1.1	-2	0.1	-12	3.6	1	-4	-7
O=C(/C=C\Nc1ccccn1)c1ccccc1	x	x	x	2	-0.1	-1	3.7	-34	3	4
CCn1c(COc2ccc(C)cc2)nnc1SCC(=O)Nc1cc(OC)ccc1OC	x	x	x	-1	0.1	7	-3.1	-7	-6	3
O=C(NCCN1CCOCC1)c1cc(-c2cccs2)nc2ccccc12	12	11	1.3	-2	0.6	-6	14	-3	-1	-5
COc1ccc([C@H]2CC(=O)C=C(C#CC(C)(C)C)C2)cc1	-23	-41	-18	-8	0.9	x	-2.4	x	2	0
C/C(=N\NC(=O)c1ccc(N/N=C(\C)c2ccc(O)cc2)cc1)c1ccc(O)cc1	-21*	-1.5*	4.2*	3	-0.5	8	1.1	-6	x	21
O=C(COC(=O)c1cccnc1Cl)NCC1CCCO1 (centres undefined)	20	11	0.3	-5	-0.3	-16	2.1	-1	-5	3
COc1cccc(CN2CC(C(=O)NC3(c4ccccc4)CC3)CCC2=O)c1 (centres undefined)	-1	8	-1.2	2	0.0	-10	1.0	0	-2	4
CCN1CCN(C(=O)CCc2nc3ccccc3c(=O)[nH]2)CC1	x	x	x	x	-0.1	-2	-0.9	-6	0	2
O=S(=O)(Nc1cccc(-c2cn3cccnc3n2)c1)c1ccc(-c2ccccc2)cc1	x	x	x	3	-1.8	15	3.3	39	1	110*
O=C(O)c1cnn2c1NC(c1ccc(F)cc1)CC2C(F)(F)F (centres undefined)	x	x	x	2	-0.5	-12	3.6	6	8	3

New compounds follow.
SMILES	rRNA inh HTS	rRNA inh HTS OD600	rRNA inh HTS RFP	Beta apoptosis	Bfl-1 A1 inh	T cruzi inh	LANA-H2A inh	Calb FLC	ALR inh	Beta2AR agonist
Cc1cccc(Nc2nnc(C)c(=O)n2N)c1	24	14	1.9	-1	1.3	-12	-1.8	15	-12	1
COCCNc1cc(C)nc2cc(-c3ccc(C)cc3)nn12	-17	-11	-1.6	1	0.7	-7	2.8	12	12	-3
CN1CCCN(C(=O)c2cccc(Br)c2)CC1	12	6	1.4	-4	0.5	6	12*	10	-7	2
Cc1cc(/C=C2/C(=O)N(C)C(=S)N2C)c(C)n1C1CC1	8	11	4.6	0	0.6	12	-3.0	u	17	-25
O=C(C[n+]1ccc(/C=N/O)cc1)NC(=O)Nc1ccccc1	10	7	-1.3	-3	-0.4	x	3.5	x	x	-3
NC(=Nc1ccc(N)cc1)C(N)=Nc1ccc(N)cc1	5	16	4.4	4	1.0	-4	-1.6	-3	99*	-4
CCN(CC)C(=O)CSc1nnc(CCNC(=O)OC(C)(C)C)o1	x	x	x	-2	0.5	-8	-1.5	0	-1	1
NS(=O)(=O)c1cccc(NC(=O)CCCC2CCCCC2)c1	-1	0	0.2	-10	1.4	-12	-3.4	1	-3	4
O=S(=O)(Nc1nccs1)c1ccc(NS(=O)(=O)c2cccs2)cc1	x	x	x	-4	0.4	-23	2.1	2	-3	5
COc1cccc(NC(=O)CS(=O)(=O)Cc2nc(-c3ccc(C)cc3)oc2C)c1	0	0	-1.2	1	1.0	-5	0.0	-5	1	2
O=C(CSc1nnc(-c2ccccn2)n1Cc1ccccc1)NC1CCCC1	x	x	x	0	1.2	5	-1.0	13	4	-17
O=C(CN(Cc1ccccc1)C(=O)CCC(=O)Nc1nccs1)NCC1CCCO1 (centres undefined)	3	10	-2.5	0	0.4	-10	-1.2	15	-3	5
Cc1nn(CC(=O)NCCN2CCOCC2)c(=O)c2ccccc12	x	x	x	-4	0.8	x	1.3	x	-1	5
COCC(C)NS(=O)(=O)c1ccc(NC(=O)c2ccccn2)cc1 (centres undefined)	6	11	-1.3	2	-0.9	-10	-3.5	12	x	2
OCC(O)CSc1nc(-c2ccccc2)nc2c1CCC2 (centres undefined)	-8	-6	1.3	-4	0.4	-3	0.3	5	-4	4
O=C(CN1C(=O)c2ccccc2S1(=O)=O)NCCc1ccccc1	7	17	3.3	-3	4.1	-9	-1.9	-6	x	-29
CC/C(=N\NC(=O)Nc1ccccc1)c1ccccc1	x	x	x	6	0.8	8	2.3	-7	-3	11
O=C(Nc1cccc2ccccc12)c1cn(-c2ccccc2)nc1-c1cccs1	12	0	2.2	8	0.2	32	1.6	0	15	1
O=C(CC1SC(N2CCCCC2)=NC1=O)Nc1cccc(C(=O)NCc2ccccc2)c1 (centres undefined)	-6	-24	0.3	-7	0.7	x	-2.2	x	14	3
COc1ccc(C(C)=O)cc1CSc1ccc(S(=O)(=O)N2CCCCC2)cn1	1	-12	1.9	-7	-0.2	x	1.8	x	7	-6
C=CCn1c(SCC(=O)NCC(=O)OCC)nnc1-c1cccc(OC)c1	x	x	x	-1	1.4	-6	3.5	4	-2	5
CC(=O)c1cc(C)ccc1OC(=O)CCN1C(=O)C2C3c4ccccc4C(c4ccccc43)C2C1=O (centres undefined)	x	x	x	-5	-0.1	-16	4.9	-4	x	-11
CC/C(=N\Nc1nncc2ccccc12)c1ccc(F)cc1	-10	-7	-1.8	-7	-0.4	x	9.2	-5	x	-6
CCOC(=O)CC(C#N)c1c[nH]c2ccccc12 (centres undefined)	x	x	x	-1	0.4	-1	4.8	-22	-2	25
O=c1cc[nH]c2cc(C(F)(F)F)ccc12	12	8	-1.1	x	-1.2	-6	1.6	-9	-6	0

Next section:
SMILES	rRNA inh HTS	rRNA inh HTS OD600	rRNA inh HTS RFP	Beta apoptosis	Bfl-1 A1 inh	T cruzi inh	LANA-H2A inh	Calb FLC	ALR inh	Beta2AR agonist
c1ccc2c(c1)ncn2CCCCOc1ccc2c(c1)CCC2	x	x	x	91*	-0.2	-2	-1.0	-14	-11	-7
O=C(COC(=O)Cc1ccc(F)cc1)NC1CCCC1	13	12	-2.3	-5	0.1	-7	4.4	-2	-16	-4
O=C1CN(C(=O)c2cnccn2)c2ccccc2N1	x	x	x	-4	-0.2	-3	2.0	u	-18	-5
Cc1noc(C(=O)NCc2cccnc2)c1Cl	7	12	-1.1	4	0.3	-9	-0.9	11	-8	-11
COC(=O)c1ccc2c(c1)NC(=O)c1ccccc1S2	10	22	12	-7	-0.5	-14	-2.2	1	2	13
COc1ccccc1CNC(=O)COc1ccc(S(=O)(=O)N2CCOCC2)cc1	1	-4	-1.7	x	0.4	9	-1.9	0	-23	-1
CCOc1ccccc1OCC(=O)NNC(=S)NC1CCCCC1	-1	0	1.8	0	0.5	-7	-1.9	u	25	-2
CCN(CC(=O)Nc1ccc(NC(C)=O)cc1)CC(=O)Nc1cc(C)on1	17	14	0.8	-3	-0.2	x	-0.9	x	-1	-2
CCO[C@H]1OC(C(=O)O)=C[C@@H](c2ccc(C(F)(F)F)cc2)[C@@H]1CCCO	6	4	8.3	2	1.6	-7	-8.0	1	37	-2
Cc1cc(Cl)ccc1Oc1nc(-c2ccccc2)ncc1S(C)(=O)=O	x	x	x	-1	0.3	10	1.1	-4	-17	-7
CCc1cccc(C)c1NC(=O)Cn1c(NCCO)nc2ccccc21	-1	11	-1.6	3	0.9	2	0.7	3	-9	2
N#Cc1c(N)nc2c3c(sc(=N)c2c1N)NC(=O)CC3c1ccccc1Cl (centres undefined)	x	x	x	11	-0.3	-2	-0.5	-2	3	12
Cc1ccc(NC(=O)Cn2cc(C=O)c3ccccc32)cc1C	-3	-5	0.5	-6	-0.3	4	-3.9	-5	-4	-5
Cc1ccc(C)c(C(=O)CCC(=O)Nc2ccc(F)cc2)c1	16	19	-0.2	-5	1.2	-4	0.2	4	-2	-9
CCOc1cc(N2CCOCC2)c(OCC)cc1NC(=O)Cc1cn2ccsc2n1	x	x	x	7	0.8	-16	0.6	-2	19	-2
Cc1cccc(C)c1N1CCN(S(=O)(=O)c2ccc(F)cc2)CC1	x	x	x	4	0.6	42	4.2	-7	x	2
Cc1ccc(Cn2cc(C(=O)c3ccc(F)cc3)c(=O)c3cc4c(cc32)OCCO4)cc1	1	2	1.3	3	-0.8	7	-4.0	0	-4	-6
CCSc1ccccc1C(=O)Nc1cccc(OC)c1	x	x	x	-3	0.8	-3	2.4	34	2	4
COCc1cc(=O)n2[nH]c(C)cc2n1	x	x	x	5	-0.1	-7	2.1	-7	-10	-10
Cc1ccc([N+](=O)[O-])cc1NC(=O)C1CCN(S(C)(=O)=O)CC1	x	x	x	-4	0.6	-6	-4.3	-5	2	5
